Vif TR-FRET: inhibitors of Vif binding to APOBEC3G peptide, primary screen, biochemical, TR-FRET, GST-Vif 1-94, biotin-A3G peptide, dose response retest (AID 1117319); Virion infectivity factor (Human immunodeficiency virus type 1 group M subtype B (isolate …; inhibition, %; hits with a dose series show IC50 in µM; TR-FRET GST-Vif / biotin-A3G peptide binding; higher % means a stronger effect; test concentration not given here; strong numbers were not always called active; 260,000 tested, 0.57% active;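 active = above the screen mean plus three standard deviations and confirmed in dose response; inconclusive = results disagree or hit not tested in dose response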;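 note: Vif residues 1-94 fused to GST binding biotinylated APOBEC3G peptide 110-148; 0% = full assay without inhibitor and 100% = GST in place of GST-Vif; retest series ran down from 100 µM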
HNF4A DNA FP: change in binding of human HNF4A to DNA, primary screen, biochemical, fluorescence polarization, FITC-DNA; 1 h; 360,000 tested, 0.3% active; activity change, % at 10 µM; in the data active = activity change above about 30%, passing the limit was not always enough;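 note: controls were the assay level and a saturating level of protein; the project sought stronger binding though the title names inhibitors; some compounds called inactive have numbers as strong as hits; positive values seem to mean higher polarization but the record does not say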
Target sequence (P41235 whole entry, looked up): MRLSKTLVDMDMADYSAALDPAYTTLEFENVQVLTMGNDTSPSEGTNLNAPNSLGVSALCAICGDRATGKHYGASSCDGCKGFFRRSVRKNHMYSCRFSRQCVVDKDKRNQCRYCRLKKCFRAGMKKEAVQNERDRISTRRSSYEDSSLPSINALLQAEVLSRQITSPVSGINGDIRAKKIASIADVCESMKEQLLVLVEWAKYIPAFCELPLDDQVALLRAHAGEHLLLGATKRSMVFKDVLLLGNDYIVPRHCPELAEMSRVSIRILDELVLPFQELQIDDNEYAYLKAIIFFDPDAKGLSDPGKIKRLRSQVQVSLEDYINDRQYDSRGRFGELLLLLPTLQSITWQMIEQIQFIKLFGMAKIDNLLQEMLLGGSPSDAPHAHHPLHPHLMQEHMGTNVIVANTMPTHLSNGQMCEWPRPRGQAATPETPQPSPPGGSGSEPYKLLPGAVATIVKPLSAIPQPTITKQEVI
E coli growth: E. coli growth inhibition, primary screen, OD600; 330,000 tested, 0.21% active; OD600 absorbance (concentration not given with the values); Escherichia coli growth, 23 h; stronger effect = lower value;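 active = OD600 absorbance below the run mean of sample wells minus 3.6 SD, in any replicate, cut at about 0.56 in these data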;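 note: stock transfer was 300 nL into about 60 µL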
RanGTP-Imp inh: inhibitors of RanGTP-importin-beta interaction, primary screen, biochemical, FRET, CFP-Ran, YFP-importin-beta, homogeneous; 300,000 tested, 1.1% active; inhibition, % (no concentration beside the values); cell-free CFP-Ran/YFP-importin-beta FRET ratio; Ran GTPase (GTP-bound) - importin-beta complex; AID 2216, 2009;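 active = most replicates above 15%; inconclusive = exactly half above 15%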;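 note: 0% = DMSO wells and 100% = Ran loaded with GDP instead of GTP; wells of about 40 µL received 100 nL stock; the first replicate is given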
UCH37 inh: inhibitors of human UCH37 deubiquitinase, primary screen, biochemical, Ub-AMC cleavage, fluorescence. Ubiquitin carboxyl-terminal hydrolase isozyme L5 (Homo sapiens), Q9Y5K5. AID 588478, 2011. 330,000 tested, 0.33% active. purified proteasome/UCH37. inhibition, % (test concentration not listed);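 active = mean of two replicates above 20%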;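 note: 0% = compound-free wells with enzyme and 100% = wells lacking proteasome; stock transfer was 100 nL into about 20 µL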
Target sequence (Q9Y5K5 whole entry, looked up): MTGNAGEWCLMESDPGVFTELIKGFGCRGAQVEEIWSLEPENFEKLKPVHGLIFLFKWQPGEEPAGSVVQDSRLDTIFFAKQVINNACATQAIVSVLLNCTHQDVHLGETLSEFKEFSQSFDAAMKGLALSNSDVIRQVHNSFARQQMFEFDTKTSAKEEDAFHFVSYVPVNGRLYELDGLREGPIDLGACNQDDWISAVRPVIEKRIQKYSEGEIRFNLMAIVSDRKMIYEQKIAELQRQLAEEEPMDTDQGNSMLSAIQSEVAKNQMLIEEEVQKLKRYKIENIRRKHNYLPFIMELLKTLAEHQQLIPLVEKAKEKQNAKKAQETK
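Schedule: 30 min plus 25 min, room temperature / Material: human UCH37 within purified proteasomes / Technique: AMC fluorescence intensity at 355/460 nm / Buffer or medium: pH 7.4 Tris-HCl (50 mM) with ovalbumin, ATP-MgCl2, DTT / Controls: wells without proteasome as full block, compound-free enzyme plus substrate as uninhibited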
MLL AF4-AF9 inh: inhibitors of AF4 peptide binding to AF9, primary screen, biochemical, AlphaScreen, biotin-AF4 peptide, FLAG-AF9, single point; Protein AF-9 (Homo sapiens), P42568; inhibition, % at 10 µM; 350,000 tested, 0.47% active; AID 651704, 2012;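 active = every replicate reaching a set inhibition limit, whatever the replicate mean, cut at about 25% in these data; inconclusive = mean inhibition reaches that limit but some replicates miss it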;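 note: 0% = plate neutral control median and 100% = total signal loss; the record names both 10 and 1 µM as test concentration; the first replicate is given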
FGF22 binding: binders of human FGF22 protein, primary screen, FGF22 synaptogenesis inhibitor project, biophysical, thermal shift, single point | Fibroblast growth factor 22 (Homo sapiens), Q9HCT0 | recombinant FGF22 thermal shift, SYPRO orange fluorescence; percent of sucrose octasulfate shift, DMSO zero | calls only at 9.99 µM | 340,000 tested, 1.5% active | AID 651658, 2012;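 active = melting point raised past a set limit in the mean and every replicate; inconclusive = no clear call; three in four hits are not shown here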
Target sequence (Q9HCT0 whole entry, looked up): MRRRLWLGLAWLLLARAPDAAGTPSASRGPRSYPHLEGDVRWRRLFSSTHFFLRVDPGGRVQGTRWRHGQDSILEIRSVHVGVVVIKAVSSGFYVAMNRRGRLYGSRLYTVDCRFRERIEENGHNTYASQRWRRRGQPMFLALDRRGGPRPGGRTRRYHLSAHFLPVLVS
* hit, by the source's call; i = inactive; ? = inconclusive; . = not tested or not shown; & = joins results of further samples. These rows are one share of the data; rates above refer to the full screens.

SMILES	Vif TR-FRET	HNF4A DNA FP	E coli growth	RanGTP-Imp inh	UCH37 inh	MLL AF4-AF9 inh	FGF22 binding
C[C@H](CO)N1C[C@H](C)[C@@H](CN(C)C(=O)Nc2ccc3c(c2)OCO3)Oc2ccc(NS(=O)(=O)c3ccc(F)cc3)cc2C1=O	0%	-2.8	0.68	.	1.8	2.4&-0.2	i
O=C(Nc1ccc2c(c1)OCO2)c1ccc2c(c1)OCO2	-2%	3.6	0.65	7.7	7.7	.	.
CC(C)[C@@H](C(=O)N1CCCC1)N1C(=O)N2CCc3c([nH]c4ccccc34)[C@@]2(C)C1=O	.	1.3	0.72	?	-1.1	2.4	i
CC(=O)c1ccc(OC2(C)CCN(Cc3csc4ccccc34)C2)cc1 (stereo not drawn)	.	1.2	.	.	.	0.7	i
Cc1cccnc1C(c1ccc(F)cc1)N(C)C(=O)C1CCN(CCOc2ccc(Cl)cc2Cl)CC1 (stereo not drawn)	.	5.5	.	.	.	6.0	i
CC12COC3(P(=O)(c4ccccc4)c4ccccc4)CC1CCC23CP(=O)(c1ccccc1)c1ccccc1 (stereo not drawn)	0%	-0.8	0.69	5.1	-0.6	2.5	i
Cn1c(=O)c2c(SCC(=O)N3CCCc4ccccc43)nc(CC(C)(C)C)nc2n(C)c1=O	-8%	-3.1	.	1.7	.	.	.
COc1ccc(OC)c(C2CC(=O)C3=C(C2)NC(=O)CC3c2ccc(O)c(OC)c2)c1 (stereo not drawn)	4%	2.5	0.72	4.0	1.0	.	.
COc1ccc(C(=O)NC(Nc2ccc(C)cc2)C(Cl)(Cl)Cl)cc1 (stereo not drawn)	0%	-3.2	0.65	2.5	0.0	.	.
COc1ccccc1N(CC(=O)NCCSCc1ccccc1)S(=O)(=O)c1ccccc1	0%	-4.0	.	.	.	-2.2	i
O=C(c1ccccc1)c1c[nH]c2ccccc12	-2%	1.6	0.68	-0.7	1.8	2.8	i
Cc1ccc(CN2CCN(CC(=O)NCc3ccc(Cl)cc3)C2=O)cc1	-8%	-0.6	0.78	-1.8	1.8	.	.
COc1cc(NC(=O)Cc2ccccc2)c(C(=O)O)cc1OC	-4%	2.9	0.71	-8.2	1.1	-1.6	i
O=C(NN=C1c2ccccc2-c2ccccc21)c1ccccc1	.	0.8	0.65	-0.1	3.2	8.8	i
CNc1cc([N+](=O)[O-])ccc1N/C=C/C(=O)c1ccc2c(c1)OCO2	15%	2.2	0.68	-5.3	6.3	.	.
COc1ccc(CN(C)CCc2ccccn2)cc1OC	3%&14%	-0.6	0.75	4.3	-5.2	-11	.
CC(C)(C)C(=O)N1N=C(c2cccc(NS(C)(=O)=O)c2)CC1c1cccs1 (stereo not drawn)	2%	2.5	0.71	2.9	2.9	7.1	i
O=C(COC(=O)c1cc(-c2ccccn2)nc2ccccc12)Nc1ncc(C(F)(F)F)cc1Cl	.	4.2	0.68	3.1	0.5	-16	i
COc1ccc(N(CC(=O)N/N=C/c2cc(OC)ccc2OC)S(=O)(=O)c2ccccc2)cc1	-1%	-1.7	.	10	.	-7.8	i
O=C(NC1CCN(S(=O)(=O)c2ccc(F)cc2)CC1)c1ccco1	.	1.1	0.69	4.9	1.3	0.2	i

Part of the list above, reduced to FGF22 binding, MLL AF4-AF9 inh and RanGTP-Imp inh:
| Compound | FGF22 binding | MLL AF4-AF9 inh | RanGTP-Imp inh |
| --- | --- | --- | --- |
| COc1ccccc1N(CC(=O)NCCSCc1ccccc1)S(=O)(=O)c1ccccc1 | i | -2.2 | . |
| O=C(c1ccccc1)c1c[nH]c2ccccc12 | i | 2.8 | -0.7 |
| Cc1ccc(CN2CCN(CC(=O)NCc3ccc(Cl)cc3)C2=O)cc1 | . | . | -1.8 |
| COc1cc(NC(=O)Cc2ccccc2)c(C(=O)O)cc1OC | i | -1.6 | -8.2 |
| O=C(NN=C1c2ccccc2-c2ccccc21)c1ccccc1 | i | 8.8 | -0.1 |

The list continues.
SMILES	Vif TR-FRET	HNF4A DNA FP	E coli growth	RanGTP-Imp inh	UCH37 inh	MLL AF4-AF9 inh	FGF22 binding
CCn1c(=O)c(C(=O)Nc2ccccc2C)c(O)c2ccccc21	-3%	-1.2	0.72	-4.9	-58	.	.
C=C1CCN([C@@H](C)C(=O)OCc2ccc(C)cc2)S(=O)(=O)c2ccccc21	.	4.3	.	-2.2	-1.2	5.5	i
O=C1CN(C(=O)CSc2nncs2)c2ccccc2N1	1%	-0.9	0.71	2.0	2.4	-2.4	i
Cn1c(N)c(Sc2ccc(F)cc2)c(=O)n(C)c1=O	8%	-3.2	0.73	-0.5	6.0	-1.7	i
CC(CN1CCOCC1)OC(=O)C1COc2ccccc2O1 (stereo not drawn)	.	-8.1	0.72	1.4	3.6	-1.1	i
CC1Cc2ccccc2N1C(=O)CSc1nnc(N)s1 (stereo not drawn)	.	3.1	0.7	-0.3	-1.0	-11	i
CCn1ccnc1CN(C)C(=O)C1CCC(=O)N(Cc2cccc(C(F)(F)F)c2)C1 (stereo not drawn)	2%	0.9	0.64	5.9	1.5	-0.8	i
COc1ccc(C(c2sc3ncnn3c2O)N2CC(C)OC(C)C2)cc1OC (stereo not drawn)	-3%	4.4	0.74	4.8	6.2	-1.3	i
COc1ccc(NC(=O)CN(C2CCCCC2)S(C)(=O)=O)cc1OC	-4%	-3.0	0.68	5.7	1.0	.	.
COC(=O)CN1C(=O)COc2ccc(S(=O)(=O)NCc3ccccc3)cc21	.	2.5	0.69	?	4.3	-2.9	i
CCc1c(N)nc(N)nc1Nc1ccc(C)c(C)c1	-3%	3.0	0.64	.	3.8	4.0	i
Cc1ccc(C2(c3noc(CN(C)Cc4ccccn4)n3)CCCC2)cc1	.	1.9	0.71	2.1	1.4	0.7	i
Nc1ccc2oc(-c3ccccc3Cl)nc2c1	.	1.1	0.67	3.3	-24	7.8	i
CN(Cc1nc2ccccc2c(=O)[nH]1)C(=O)COc1ccccc1Cc1ccccc1	.	2.3	0.65	.	-2.6	-1.0	i
Cc1cccc(OCCSc2nc3ncnc(N)c3[nH]2)c1	?	0.0	0.68	?	-0.2	-2.7	i
Cc1ccc(NC(=O)CCC(=O)c2cccs2)cc1	-10%	1.9	0.71	-2.2	-0.5	.	.
COC(=O)c1cc(Cl)c(NC(=O)/C=C/c2ccc(Cl)cc2Cl)cc1OC	15%	-1.9	0.73	-1.6	-148	.	.
Cc1ccc(NC(=O)COc2ccc3c(c2)OCO3)c(Cl)c1	-6%	1.7	0.68	.	1.2	-0.3	i
CCC(=O)Nc1c(C#N)c2nc3ccccc3nc2n1C1CCCCC1	-4%	12	0.73	3.7	-37	.	.
CC1CCc2cc(F)ccc2N1S(=O)(=O)c1ccc(F)cc1 (stereo not drawn)	.	-0.1	0.71	?	5.6	0.4	i
COc1cc2c(C(=O)NCCN(C)C)cn(CC(C)C)c(=O)c2cc1OC	13%	-0.8	0.71	-1.5	-1.3	1.9	i
CCC1=C(OC(=O)N(CC)CC)N2C(=O)OC(=NCC3CC3)[C@]2(Cc2ccccc2)[C@H]2C1=CC[C@H]1C(=O)NC(=O)[C@H]12	.	-2.6	.	-1.5	2.5	0.3	i
CN1/C(=C\C(=O)C[n+]2ccc(C(=O)c3ccccc3)cc2)C(C)(C)c2ccccc21	.	7.2	0.63	-2.7	16	7.3	i
NS(=O)(=O)c1cccc(NC(=O)Nc2ccc(Cl)cc2)c1	-5%	-1.9	0.56	5.0	2.2	-6.2	i
O=C(COc1ccc(Cl)cc1)Nc1nnc(C2=COCCO2)o1	8%	0.3	0.65	6.0	2.1	-0.7	i
CC(C)N(Cc1cnn(C)c1)C(=O)c1ccc(OC2CCN(Cc3ccccn3)CC2)cc1	7%	-0.1	0.7	5.0	-0.5	1.7	i
CCCC(=O)OCC(=O)Nc1cc([N+](=O)[O-])ccc1OC	-2%	1.7	0.66	-1.4	5.1	2.8	i
Cc1ccc(N(CC(=O)N2CCN(c3ccc(F)cc3)CC2)S(=O)(=O)c2c(C)nn(C)c2C)cc1	16%	-3.1	0.7	?	2.3	-0.7	i
Cc1ccc[n+](-c2nc3ccccc3nc2C(=C=[N-])C#N)c1	26%&-5%	60*	0.73&0.72	-3.4&-2.6	5.1&6.9	-1.1	i
C=CCSc1nc(C)cc(/C=C\c2ccccc2)c1C#N	9%	0.5	0.75	1.5	-8.2	.	.
CCC(Oc1ccccc1)C(=O)Nc1ccc(-c2nnc(-c3ccco3)o2)cc1 (stereo not drawn)	6%	6.6	0.69	-4.9	-24	.	.
Cc1cc2c3c(c1C)C(=O)C(=O)N3C(C)(C)CC2C (stereo not drawn)	5%	-2.3	0.67	6.9	6.1	4.8	i
O=C(/C=C/c1cccc([N+](=O)[O-])c1)c1ccco1	9%	-1.1	.	2.8	.	-8.8	i
CC(O)c1cccc(NC2=CC(=O)CC(C)(C)C2)c1 (stereo not drawn)	?	4.6	0.71	5.5	-1.4	.	.
CCN(CC)c1ccc(/C=N/NC(=O)c2cccc(N3CCCC3=O)c2)cc1	0%	-1.2	.	.	.	3.7	i
NC(=O)C1=C[C@@H](c2coc3ccccc3c2=O)C[C@@H](OCc2ccc(CO)cc2)O1	5%	2.8	.	0.7	2.3	-1.3	i
Nc1ccc(C(=O)N2CCCC2)cc1	-4%	-1.8	0.69	-0.7	3.8	.	.
Cc1cccc(C(=O)NC(=S)N(C)C2CCCCC2)c1	.	1.8	0.68	0.8	5.5	5.3	i
CC(C)OC(=O)CSc1nc(C(C)C)nc2ccccc12	-11%	-3.0	0.67	?	2.2	-2.5	i
CCCCOc1ccc(/C=C/C(=O)Nc2ccc([N+](=O)[O-])cc2C)cc1	21%	2.0	0.72	-2.7	6.3	.	.
COc1ccc(S(=O)(=O)N2CCC(C(=O)N3CCN(c4ccccc4OC)CC3)CC2)cc1	-2%	2.3	0.77	4.0	0.0	.	.
CCc1ccc(/C(C)=N/NC(=O)CNC(=O)/C=C/c2ccccc2OC)cc1	.	1.0	.	-2.7	.	-4.5	i
CC(C)CCNC(=O)C(=O)NCCC1=CCCCC1	1%	1.4	0.65	4.7	1.8	-11	i
COc1ccc2[nH]c3c(c2c1)CCN1C(=O)N([C@@H](C)C(=O)NCCc2ccc(OC)c(OC)c2)C(=O)[C@]31C	.	1.8	0.71	6.7	-1.3	4.3	i
COc1ccc(NC(=S)N2CCC(c3ccccc3)C2)cc1 (stereo not drawn)	-5%	0.9	0.7	0.0	0.1	0.4	i
Cc1sc(NC(=S)NC(=O)c2ccccc2)c(C#N)c1C	-5%	-1.2	0.74	-0.4	3.7	.	.
O=C(CSc1ccc(F)cc1)N1CCC(c2nc3ccccc3s2)CC1	-2%	-1.8	0.79	6.2	3.4	.	.
Cc1cccc(-c2nsc(SCC(=O)Nc3nccs3)n2)c1	-2%	-0.3	0.76	-0.4	2.6	.	.
O=C(NC1CC1)c1ccc(F)cc1Cl	6%	2.8	0.67	-0.7	0.7	.	.
CCCCCO	.	-1.1	0.65	.	1.1	.	i
CCOc1ccccc1C(=O)Nc1ccccc1O	-1%	1.1	0.69	-1.7	2.4	.	.
Cc1ccc2nc(C)c3c(c2c1)OC(C(C)(Cl)Br)C3 (stereo not drawn)	-3%	-2.5	0.65	-1.4	5.4	-3.6	i

2 successive entries from above:
SMILES	Vif TR-FRET	HNF4A DNA FP	E coli growth	RanGTP-Imp inh	UCH37 inh	MLL AF4-AF9 inh	FGF22 binding
O=C(NC1CC1)c1ccc(F)cc1Cl	6%	2.8	0.67	-0.7	0.7	.	.
CCCCCO	.	-1.1	0.65	.	1.1	.	i

From PubChem BioAssay
